Bioassay records from PubChem.
Tgondii IFNg – inhibitors of Toxoplasma gondii growth with IFN-gamma. 69,000 compounds, 3.8% hits. Toxoplasma gondii growth in IFN-gamma-treated host cells; active compounds read low; reference of the scale not given here. activity change, negative = inhibition, %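 (about 20 µM by stock and volumes)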;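 active means below -70%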;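 further: host cells are HeLa cells infected with Toxoplasma gondii; parasite growth read as luciferase light; one replicate is shown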
Active calls of the source: *; & = joins results of further samples. Only part of the results is shown. The share of hits here may be higher or lower than overall.

cpd	molecule	Tgondii IFNg
1	CCOC(=O)N1CCC(NC(=O)C2CC23CCN(Cc2ccc(OC)c(OC)c2Cl)CC3)CC1 (stereo not drawn)	4
2	O=C(O)c1nccnc1C(=O)OCCCc1ccncc1	25
3	Cc1oc(-c2ccc(C(=O)NC(C)Cc3ccco3)cc2)nc1CN1CCc2ccccc21 (stereo not drawn)	-62
4	CCOC(=O)C1CCCN(C(=O)c2cc3n(n2)CCCN(C)C3)C1 (stereo not drawn)	28
5	CC(C)c1cc(C(=O)NCc2nnc(-c3nccc4ccccc34)o2)no1	219
6	Cn1ccnc1-c1cnc(NCc2ccccn2)nc1-c1ccco1	26
7	CCOCC(=O)N1CCO[C@@H]2CCCC[C@H]21	2
8	NC(=O)c1cncc(C#CC2(NC(=O)c3cscn3)CCCCC2)c1	-39
9	CCn1cc(S(=O)(=O)N2CCC(c3ccc(Nc4ncccc4C)cn3)CC2)c(C)n1	-38
10	Cc1cc(NC(C)c2cnn(C)c2)nc2cc(Cl)ccc12 (stereo not drawn)	-22
11	Cc1csc2ncc(C(=O)N3CCc4sccc4C3c3cccs3)c(=O)n12 (stereo not drawn)	-7
12	O=S(=O)(Oc1cccnc1)c1cccc2nonc12	42
13	O=S(=O)(NCC1CCN(C2Cc3ccccc3C2)C1)N1CCCC1 (stereo not drawn)	8
14	O=C(Cc1ccc(F)cc1)N1Cc2ccccc2OCC1Cn1ccnc1 (stereo not drawn)	72
15	COc1ccc2c(c1)C=C(CN1CCCn3cncc3C1)CO2	74
16	COc1ccc2nc(NC(=O)CN3C(=O)CCc4cc(Br)ccc43)sc2c1	207
17	O=C1NC2(CCN(C(=O)c3csc4c3CCCC4)CC2)Nc2ccccc21	7
18	COc1ccc2c3c(n(C)c2c1)[C@@H](CO)N(S(=O)(=O)c1ccc(C)cc1)CC31CCN(C)CC1	-31
19	CCOC(=O)C1C(=O)OC(C)(C)C1C(C)C(=O)c1ccc(C)cc1 (stereo not drawn)	7
20	N[C@@H](CCCCNC(=O)OCc1ccccc1Cl)C(=O)O	24
21	CC(C)CN1C[C@@H]2CN(C(=O)[C@H]3CCCO3)C[C@H]2C1=O	0
22	c1cc(CN2C[C@H]3OCCN(CCN4CCCC4)[C@H]3C2)co1	2
23	COCCN(C)c1ccc2ccc(C(=O)N(C)C)cn12	34
24	CCc1cc(N2CC(c3ccncc3)C2)nc(N2CCCC2)n1	-1
25	OCc1noc2c1CN(Cc1ccccn1)CC2	35
26	CC1CCCCN1S(=O)(=O)c1ccc2c(c1)CCC(=O)N2CC(=O)N1CCC2(CC1)OCCO2 (stereo not drawn)	-14
27	N#Cc1nccnc1N1CCN(C(=O)Nc2ccc(OC(F)(F)F)cc2)CC1	-47
28	O=C1c2ccccc2C(Cc2ccnc(F)c2)(Cc2ccnc(F)c2)c2ccccc21	12&35
29	CCC[C@H](NC(=O)/C(C#N)=C/c1cccc(Br)n1)c1ccccc1	-72*
30	Cc1ccc(Sc2ccc(-c3nccn3CCO)o2)cc1	-1
31	C#CC(C)(C)NC(=O)C1CCCN(CC(N)=O)C1 (stereo not drawn)	1
32	O=S(=O)(c1ccc(F)cc1)N1CC[C@H]2[C@@H]1CCN2CC1CC1	-6
33	NC(c1ccccc1)c1cc2ccccc2cn1 (stereo not drawn)	-17
34	CCN(Cc1ccncc1)C(=O)CCC(=O)NC1CCCC1	-14
35	CNc1nc(CN2CCCC(N3CCCC3=O)C2)cs1 (stereo not drawn)	-1
36	COc1ccc2c3c([nH]c2c1)[C@@H](CO)N(Cc1cc(F)ccc1F)CC31CCN(C(=O)CN(C)C)CC1	19
37	COc1cc(N2CCOc3c(cc(-c4cccs4)cc3OC)C2)ncn1	-24
38	CCc1nn(C)c(Cl)c1CN1CCN(Cc2ccc(Cl)cc2)CC1	-15
39	COc1ccc2c3c(n(C)c2c1)[C@@H](CO)N(CC1CCCC1)CC31CN(C(=O)Nc2ccccc2)C1	-48
40	N#C[C@H]1[C@H](c2ccccc2-c2ccccc2F)[C@H](CO)N1C(=O)Cc1ccccc1	15
41	COc1cc(NCC(O)CN2CCCCCC2)ncn1 (stereo not drawn)	-4
42	COc1ccccc1S(=O)(=O)N(C)C[C@@H]1OCc2cn(nn2)CCCC(=O)N([C@H](C)CO)C[C@@H]1C	43
43	COc1ccc(-n2ncc(NC(=O)Nc3ccc4c(c3)OCCCO4)c2C)cc1	160
44	CCC(=O)N1C[C@@H](C)[C@@H](OC)CN(C)C(=O)c2ccc(NC(=O)CC(F)(F)F)cc2OC[C@H]1C	291
45	O=C(N1CCc2c(nc[nH]c2=O)C1)C1(c2ccccc2)CC1	0
46	Cc1noc(C)c1Cc1c(C(=O)Nc2nc3c(s2)CCCCC3)noc1C	-20
47	CSc1cccc(NC(=O)CN2C(=O)CCc3cc(S(=O)(=O)N4CCCCC4C)ccc32)c1 (stereo not drawn)	-86*
48	Cc1ccc(C(=O)NCc2cccnc2)cc1C	47
49	CCNCC(O)COCC(O)CNCC (stereo not drawn)	5
50	CN(Cc1cc(C(C)(C)C)n[nH]1)C(=O)c1cccc(-n2cccn2)c1	29
51	CCN(CC)c1ncc(CN2CCc3sccc3C2C)s1 (stereo not drawn)	94
52	Cc1ccc(-c2cc(C(=O)O)nn2C)cc1	21
53	CCc1cc2c(N3CCC(C(N)=O)(N4CCCCC4)CC3)ncnc2s1	4
54	Cc1nc2ccc(C(=O)N3CCCC4(CC3)CNC(=O)O4)cc2nc1C (stereo not drawn)	4
55	Fc1cnc(N2CCC3OCCCC3(COc3ccccn3)C2)nc1 (stereo not drawn)	-18
56	O=C(Nc1cccc(C(=O)O)c1)/C(=C\c1ccccc1)NC(=O)c1ccccc1	24
57	O=C(Nc1cccc(F)c1)N1CCCCN2[C@H](CO)[C@H](c3ccc(C#Cc4cccnc4)cc3)[C@H]2C1	-52
58	COC(=O)c1ccc(NC(=O)Cn2c(C)cc(C)c(C#N)c2=O)cc1	14
59	O=C(CNCc1ccccc1Cl)NC(c1ccccc1)c1ccccc1	10
60	Cc1noc(C)c1S(=O)(=O)N(C)C[C@H]1OCCCC[C@H](C)Oc2ccc(NC(=O)CCC(F)(F)F)cc2C(=O)N([C@H](C)CO)C[C@H]1C	272

The list goes on.
cpd	molecule	Tgondii IFNg
61	c1cc(N2CCCC2)nnc1CC1CCCNC1 (stereo not drawn)	3
62	CCc1ccccc1NC(=O)c1nc(Nc2ccccc2)c2ccccc2n1	-69
63	O=C(O)c1cc(-c2ccsc2)cc(S(=O)(=O)N2CCOCC2)c1	-11
64	Cc1ccc(C)c(N2CCN(C(=O)CC3Nc4c5ccccc5nc(=S)n4C3=O)CC2)c1 (stereo not drawn)	5
65	COc1cccc(C(=O)Nc2ccc3c(c2)C(=O)N(C)[C@@H]2CC[C@H](CC(=O)NCc4ccc(F)cc4)O[C@@H]2CO3)c1	-55
66	CO[C@@H]1CN(C)C(=O)c2ccc(NC(=O)C3CCC3)cc2OC[C@H](C)N(Cc2ccccn2)C[C@H]1C	20
67	CCCC(=O)Nc1ccc2c(c1)OC[C@H](C)NC[C@@H](C)[C@@H](OC)CN(C)C2=O	40
68	Cc1nc(-c2nc(C(=O)C(C)C)c3ccccn23)cn1Cc1ccc(F)cc1F	192
69	COCC(=O)N1CC[C@H](OCc2ccncc2)[C@@H](Cc2ccccc2)C1	30
70	Cc1[nH]c2ccccc2c1C(=O)C(=O)NC1CC(=O)N(c2ccccc2)C1 (stereo not drawn)	1
71	CCCN(C)C[C@H]1OCCCC[C@@H](C)Oc2ccc(NC(=O)CCCN(C)C)cc2C(=O)N([C@H](C)CO)C[C@H]1C	-14
72	Cc1nc(-c2cccc(F)c2)sc1CCNC(=O)C(=O)Nc1ccccc1C#N	25

Arranged by molecular weight (lowest first): some entries from above
cpd	molecule	Tgondii IFNg
62	CCc1ccccc1NC(=O)c1nc(Nc2ccccc2)c2ccccc2n1	-69
67	CCCC(=O)Nc1ccc2c(c1)OC[C@H](C)NC[C@@H](C)[C@@H](OC)CN(C)C2=O	40
68	Cc1nc(-c2nc(C(=O)C(C)C)c3ccccn23)cn1Cc1ccc(F)cc1F	192
71	CCCN(C)C[C@H]1OCCCC[C@@H](C)Oc2ccc(NC(=O)CCCN(C)C)cc2C(=O)N([C@H](C)CO)C[C@H]1C	-14

(listing goes on)
cpd	molecule	Tgondii IFNg
73	O=C1Nc2ccccc2C1C1CCN(C(=O)CO)CC1 (stereo not drawn)	61
74	CC(=O)N(C)c1ccc(NC(=O)CN2CCN(c3ccncc3C)CC2)cc1	-14
75	CO[C@H]1CN(C)C(=O)c2cc(NC(=O)Nc3cccc(Cl)c3)ccc2OC[C@@H](C)N(C(=O)Nc2c(C)noc2C)C[C@@H]1C	79
76	CCOC(=O)C1CN(Cc2ccccc2)C(=O)C1=O (stereo not drawn)	13&34
77	CN(Cc1nnc(-c2ccccc2)o1)C(=O)c1ccc(-n2cccn2)nc1	7
78	CC(C)OC(=O)c1cn(Cc2c(F)cccc2F)c2sc(-c3ccc(NC(=O)C(C)C)cc3)c(CN(C)Cc3ccccc3)c2c1=O	-80*
79	Cn1cnc2c(F)c(Nc3ccc(Br)cc3Cl)c(C(=O)NOCCO)cc21	5
80	Cc1ccc(C)c(C(O)CN2CCN(c3nnc(C(F)(F)F)s3)CC2)c1 (stereo not drawn)	33
81	COc1ccc(S(=O)(=O)NCCc2sc(-c3cccc(F)c3)nc2C)cc1	39
82	CC(c1cccnc1)N(C)C(=O)c1ccc(Oc2ccccc2)o1 (stereo not drawn)	1
83	C[C@@H](NC(=O)C[C@@H]1CC[C@H]2[C@@H](COC[C@H](O)CN2C(=O)Nc2cccc(Cl)c2)O1)c1ccccc1	-10
84	COc1ccccc1CC(=O)Nc1ccc(-c2noc(-c3cc(Cl)ccc3OC)n2)cc1	-27
85	O=C(Nc1ccc(OC(F)(F)F)cc1)OCc1ccc(C#Cc2ccccc2)s1	-83*
86	c1ccc(-c2cn3c4ccccc4nc3n2CCCN2CCOCC2)cc1	-17
87	Cn1ccn2ncc(C(=O)NCCN3CCc4ccccc43)c12	-3
88	CN(C)CCN1C(=O)CCC2C1CCN2Cc1ccc2c(c1)OCO2 (stereo not drawn)	0
89	COc1ccc2c(c1)O[C@H]1c3ccc(OC)cc3OC[C@@H]21	-21
90	CCS(=O)(=O)Nc1ccc2c(c1)C(=O)N(C)C[C@H](OC)[C@@H](C)CN(CC1CCCCC1)[C@@H](C)CO2	27
91	c1cc(C2CCCN(Cc3cn[nH]c3C3CCCCC3)C2)[nH]n1 (stereo not drawn)	-43
92	CO[C@H]1CN(C)C(=O)c2cc(NC(=O)NC(C)C)ccc2OC[C@@H](C)N(Cc2ccccc2)C[C@H]1C	100
93	CCn1c(C2CCN(C(=O)CC3CCS(=O)(=O)C3)CC2)nn(C)c1=O (stereo not drawn)	-5
94	Cc1ccc(-c2nnc(-c3nc(NCc4ccccc4C)c4ccccc4n3)o2)cc1	-53
95	COCC1CN(C(=O)c2ccc3cc[nH]c3c2)CC12CCOCC2 (stereo not drawn)	-31
96	C=CC(C)(C)c1cc(/C=C/C(=O)c2ccc(O)cc2)c(OC)cc1O	18

In a second layout: 4 of the compounds above
92. CO[C@H]1CN(C)C(=O)c2cc(NC(=O)NC(C)C)ccc2OC[C@@H](C)N(Cc2ccccc2)C[C@H]1C
  Tgondii IFNg: 100

90. CCS(=O)(=O)Nc1ccc2c(c1)C(=O)N(C)C[C@H](OC)[C@@H](C)CN(CC1CCCCC1)[C@@H](C)CO2
  Tgondii IFNg: 27

94. Cc1ccc(-c2nnc(-c3nc(NCc4ccccc4C)c4ccccc4n3)o2)cc1
  Tgondii IFNg: -53

88. CN(C)CCN1C(=O)CCC2C1CCN2Cc1ccc2c(c1)OCO2 (stereo not drawn)
  Tgondii IFNg: 0

Next results follow:
cpd	molecule	Tgondii IFNg
97	CN1C(=O)N(CCc2ccccc2)C(=O)C12CCN(Cc1ccc3c(c1)OCO3)CC2	3
98	Cc1ccc(Cl)c(CN2CCN(c3cc(NCCO)ncn3)CC2)c1F	15
99	CCC(=O)Nc1ccc2c(c1)C(=O)N(C)C[C@@H](OC)[C@H](C)CN(C(=O)NC1CCCCC1)[C@H](C)CO2	118
100	CN(C)C(=O)COC1COC2(CCN(Cc3cnn(C)c3)C2)C1 (stereo not drawn)	-9
101	O=C(COCc1ccccc1)N1[C@H]2CCNC[C@@H]1CC2	5
102	Cc1ccc(CNS(=O)(=O)N(C)C)cc1	12
103	Cc1cc(C(=O)N2CCCN(c3ccncc3C)CC2)nc(C)n1	-6
104	CCn1c(C2CCN(c3ncnc4sc(C)cc34)CC2)n[nH]c1=O	-7
105	CCOC(=O)CNC(=O)N1CCC(CCCc2ccccc2)(C(=O)OCC)CC1	-3
106	N#Cc1cccc(CN2CCC(N3CCCC3)CC2C(=O)O)c1 (stereo not drawn)	2
107	N#C[C@@H]1[C@@H](c2ccccc2)[C@H](CO)N1C(=O)Nc1cccc(F)c1	7
108	CCCOc1ccc(-c2noc(-c3c(O)c4cc(F)ccc4n(C)c3=O)n2)cc1	0
109	NCCN1CCOC(CC(=O)Nc2cc(Cl)cc(Cl)c2)C1=O (stereo not drawn)	30
110	O=C(O)C(Cc1ccccc1)NS(=O)(=O)c1cccs1 (stereo not drawn)	-23
111	c1ccc(Cc2n[nH]c(Cn3c(C4CC4)nc4ccccc43)n2)cc1	-3
112	O=C(C1COc2ccccc2O1)N(CCO)Cc1cccs1 (stereo not drawn)	-18
113	O=C(NCCc1cccs1)c1c(O)c2cccnc2n(-c2cccc(F)c2)c1=O	95
114	O=C(Nc1ccc(Cl)cc1)c1nc2c(s1)CCN(c1ncccn1)CC2	-18
115	CN(C)CC1COc2ccccc2CN1C(=O)CNC1C=CS(=O)(=O)C1 (stereo not drawn)	44
116	COc1cccc(SCC(=O)NC2Cc3ccccc3C2)c1	-4
117	CCC(C(N)=O)c1ccccc1 (stereo not drawn)	1
118	Fc1cccc(Cl)c1-c1nccn1Cc1cnc2ccccn12	9
119	CN(C)C(=O)c1ccc(-c2ccc(C3[C@@H]4CN(C(=O)C5CC5)C[C@H]3N4)cc2)cc1 (stereo partly drawn)	5&4
120	CN(CCOc1ccc(-c2ccc3c(c2)OCO3)cc1C(C)(C)C)CC(=O)O	15
121	O=C(Cn1ncc2c(N3CCN(c4ccccn4)CC3)ncnc21)NC1CC1	67
